Screening data: PubChem BioAssay, several laboratories
Vif A3G: HIV-1 Vif–A3G interaction blockers – biochemical, TR-FRET, GST-Vif 1-94, biotin-A3G peptide, dose response retest, primary screen (AID 1117319); TR-FRET GST-Vif / biotin-A3G peptide binding; higher % means a stronger effect; test concentration not given here; strong numbers were not always called active; inhibition, %, or IC50 in µM where a hit was titrated; actives 0.57% (n = 260,000);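 active = above the screen mean plus three standard deviations and confirmed in dose response; inconclusive = results disagree or hit not tested in dose response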;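 note: Vif residues 1-94 fused to GST binding biotinylated APOBEC3G peptide 110-148; 0% = full assay without inhibitor and 100% = GST in place of GST-Vif; retest series ran down from 100 µM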
HNF4A DNA FP: change in binding of human HNF4 alpha to DNA | P41235 | HNF4a-FITC DNA binding, fluorescence polarization, 1 h | activity change, % at 10 µM | actives 0.3% (n = 360,000) | AID 1224865; in the data active = activity change above about 30%, passing the limit was not always enough;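 note: controls were the assay level and a saturating level of protein; the project sought stronger binding though the title names inhibitors; some compounds called inactive have numbers as strong as hits; positive values seem to mean higher polarization but the record does not say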
Target sequence (P41235 whole entry, looked up): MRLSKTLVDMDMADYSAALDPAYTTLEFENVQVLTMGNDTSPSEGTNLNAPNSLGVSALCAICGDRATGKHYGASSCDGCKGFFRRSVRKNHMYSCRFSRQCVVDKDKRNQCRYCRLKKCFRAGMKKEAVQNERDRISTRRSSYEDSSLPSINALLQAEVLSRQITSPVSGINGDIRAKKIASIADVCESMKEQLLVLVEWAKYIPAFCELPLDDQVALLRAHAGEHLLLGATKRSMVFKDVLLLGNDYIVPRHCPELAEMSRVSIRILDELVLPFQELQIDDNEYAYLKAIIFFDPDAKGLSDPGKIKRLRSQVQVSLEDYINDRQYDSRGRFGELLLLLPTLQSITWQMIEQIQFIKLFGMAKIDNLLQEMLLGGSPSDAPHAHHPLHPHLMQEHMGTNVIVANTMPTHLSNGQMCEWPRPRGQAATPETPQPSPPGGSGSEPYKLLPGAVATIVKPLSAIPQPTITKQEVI
Bfl-1 A1 inh: inhibitors of the anti-apoptotic protein A1, read as caspase activation; caspase activation, % (concentration not given with the values); actives 0.066% (n = 330,000); MEF A1-2A-BIM cells, Caspase-Glo 3/7 luminescence, 3 h; percent of clofoctol response, vehicle zero;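 active = over half of replicate activation scores above 10%, or exactly half above 10 with the replicate mean above 10; inconclusive = replicate mean below 10 yet half the replicates above 10; inactive = over half of replicates below 10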;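 note: wells of about 30 µL received 50 nL stock; many hits fall short of the cut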
Beta2AR agonist: activates human beta-2 adrenergic receptor causing internalization. Am2.2-beta2AR cells, FAP receptor internalization, flow cytometry; reference of the scale not given here. response, % (concentration not given with the values). actives 0.43% (n = 340,000);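 active = response above a set limit, near 3 SD of response in nonfluorescent compounds, cut at about 42% in these data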;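 note: stock transfer was 100 nL into about 11 µL; a reference agonist was the positive control; negative values mostly stem from fluorescent compounds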
Target sequence (P07550 whole entry, looked up): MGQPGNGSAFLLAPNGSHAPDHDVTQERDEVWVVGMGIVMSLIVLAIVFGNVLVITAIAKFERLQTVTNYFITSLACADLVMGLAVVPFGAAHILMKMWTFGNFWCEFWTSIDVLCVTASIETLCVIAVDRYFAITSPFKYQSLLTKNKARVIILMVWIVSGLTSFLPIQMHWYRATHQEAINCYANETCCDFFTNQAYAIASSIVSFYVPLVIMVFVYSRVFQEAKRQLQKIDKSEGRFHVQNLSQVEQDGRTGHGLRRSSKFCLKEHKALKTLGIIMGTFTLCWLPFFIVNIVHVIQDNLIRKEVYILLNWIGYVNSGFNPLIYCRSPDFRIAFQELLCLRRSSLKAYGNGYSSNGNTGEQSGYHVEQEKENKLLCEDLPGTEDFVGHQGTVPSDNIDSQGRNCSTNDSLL
LANA-H2B inh: blocks KSHV LANA binding to histone H2A/H2B. cell-free LANA-H2A/H2B peptide, fluorescence polarization. actives 0.6% (n = 320,000). Q9QR71. inhibition, % (concentration not given with the values); in the data active = inhibition mostly above about 10%, no sharp cut-off; inactive = mostly below about 6.7%;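 note: stock transfer was 7.5 nL into about 10 µL; 0% = median of vehicle wells and 100% = median of positive control wells; one replicate is shown; the record names a cut of 25% in any replicate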
UCH37 DUB inh: blocks the human deubiquitinase UCH37 | inhibition, % (concentration not given with the values) | Q9Y5K5 | actives 0.33% (n = 330,000) | purified proteasome/UCH37, Ub-AMC cleavage fluorescence;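 active = mean of two replicates above 20%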;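 note: 0% = compound-free wells with enzyme and 100% = wells lacking proteasome; stock transfer was 100 nL into about 20 µL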
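System: Proteasome-associated human UCH37 deubiquitinase; Input: 0.15 nM proteasome in added enzyme buffer; Also added: Ub-AMC substrate from 1 µM stock; Incubation: 30 min compound-proteasome preincubation then 25 min substrate reaction, room temperature; Detection: fluorescence, ex 355 nm, em 460 nm; Read-out: % inhibition of Ub-AMC cleavage fluorescence; Benchmarks: no-proteasome and no-compound wells.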
Ecoli growth: blocks Escherichia coli growth; actives 0.21% (n = 330,000); OD600 absorbance (no concentration beside the values); OD600, 23 h; stronger effect = lower value; AID 1053175;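 active = OD600 absorbance below the run mean of sample wells minus 3.6 SD, in any replicate, cut at about 0.56 in these data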;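 note: stock transfer was 300 nL into about 60 µL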
An asterisk follows results filed as active; ? = inconclusive; . = not tested or not shown.

Every second line gives: Vif A3G	HNF4A DNA FP	Bfl-1 A1 inh	Beta2AR agonist	LANA-H2B inh	UCH37 DUB inh	Ecoli growth
[1] O=C(Cn1ccc(NC(=O)OCc2ccccc2)nc1=O)NCCc1c[nH]c2ccccc12
    .	-2.7	0.2	0	-2.5	1.5	0.8
[2] CCN1CCN(C(=O)c2ccc3c(c2)N(Cc2ccc(C)cc2)CCS3)CC1
    .	3.0	1.2	-3	0.7	-104	0.74
[3] ClCc1csc(N/N=C/c2cccs2)n1
    18%	.	0.7	.	9.2	.	.
[4] O=C1C=C(c2ccc3[nH]ccc3c2)CCC1
    .	-1.4	-0.7	-2	-4.3	1.8	0.65
[5] O=C(NCC1CCCO1)c1ccc(Br)s1 (stereo not given)
    .	0.6	0.1	-1	2.1	0.2	0.7
[6] CC(Oc1ccccc1)C(=O)N1CCN(c2ccc(N3CCOCC3)nn2)CC1 (stereo not given)
    3%	4.1	0.7	-4	-3.2	-285	0.63
[7] O=C(CCCN1C(=O)/C(=C/c2cccs2)SC1=S)Nc1ccccn1
    .	2.2	-0.4	-3	4.8	3.0	0.69
[8] Cc1ccccc1NS(=O)(=O)c1ccc2c(c1)n(C)c(=O)n2C
    .	2.1	0.9	-5	2.4	0.2	0.66
[9] CC(Oc1ccc(F)cc1)C(=O)Nc1ccc(N2CCOCC2)cc1N1CCOCC1 (stereo not given)
    -1%	-2.7	-0.6	-5	4.0	2.8	0.63
[10] Cc1cccc(NC(=O)CSc2nc3ccccc3o2)c1
    ?	1.0	1.0	-4	3.0	1.4	0.69
[11] CCN1C(C(=O)c2ccccc2)=C(Nc2ccccc2C)c2ccccc2S1(=O)=O
    2%	1.6	0.4	13	-1.5	6.1	0.73
[12] CC(C)c1cc(CN2CCOCC2)cc(C(C)C)c1O
    .	-0.5	0.6	2	-5.0	5.8	0.68
[13] COc1ccc(-n2c(SCC(=O)N3CCOCC3)nc3ccccc3c2=O)cc1
    .	0.0	0.3	-4	11	2.1	0.72
[14] CCNS(=O)(=O)c1ccc(CCC(N)=O)cc1
    1%	2.8	2.8	10	-7.2	-1.1	0.68
[15] O=c1c2ccccc2c(-c2ccc(Cl)cc2)nn1-c1ccccc1
    13%	-1.8	0.3	-12	1.5	0.7	0.67
[16] O=C(CN1C(=O)CSC1=O)Nc1ccccc1F
    -1%	-1.4	0.3	-4	-0.2	-5.6	0.68
[17] CCOC(=O)[C@@H]1[C@H]2COc3cc(OC)ccc3[C@@H]2N2C(=O)N(c3ccc(C)cc3)C(=O)[C@@]12C
    .	-6.1	0.3	3	0.1	1.4	.
[18] OC[C@H]1O[C@H](OC[C@H]2O[C@H](OC[C@H]3O[C@H](O[C@]4(CO)O[C@H](CO)[C@@H](O)[C@@H]4O)[C@H](O)[C@@H](O)[C@@H]3O)[C@H](O)[C@@H](O)[C@H]2O)[C@H](O)[C@@H](O)[C@H]1O
    .	-0.5	-0.3	-1	3.6	1.9	.
[19] O=[N+]([O-])c1ccccc1/C=C/CN1CCCC(CO)C1 (stereo not given)
    .	3.1	-1.5	-4	-1.9	0.9	0.63
[20] CC(C)NC(=O)NC(=O)COC(=O)/C=C/c1ccccc1[N+](=O)[O-]
    4%	-1.7	0.4	6	1.2	2.4	0.69

In another format: entries from further up.
4. O=C1C=C(c2ccc3[nH]ccc3c2)CCC1
  Vif A3G: .
  HNF4A DNA FP: -1.4
  Bfl-1 A1 inh: -0.7
  Beta2AR agonist: -2
  LANA-H2B inh: -4.3
  UCH37 DUB inh: 1.8
  Ecoli growth: 0.65
17. CCOC(=O)[C@@H]1[C@H]2COc3cc(OC)ccc3[C@@H]2N2C(=O)N(c3ccc(C)cc3)C(=O)[C@@]12C
  Vif A3G: .
  HNF4A DNA FP: -6.1
  Bfl-1 A1 inh: 0.3
  Beta2AR agonist: 3
  LANA-H2B inh: 0.1
  UCH37 DUB inh: 1.4
  Ecoli growth: .
5. O=C(NCC1CCCO1)c1ccc(Br)s1 (stereo not given)
  Vif A3G: .
  HNF4A DNA FP: 0.6
  Bfl-1 A1 inh: 0.1
  Beta2AR agonist: -1
  LANA-H2B inh: 2.1
  UCH37 DUB inh: 0.2
  Ecoli growth: 0.7
10. Cc1cccc(NC(=O)CSc2nc3ccccc3o2)c1
  Vif A3G: ?
  HNF4A DNA FP: 1.0
  Bfl-1 A1 inh: 1.0
  Beta2AR agonist: -4
  LANA-H2B inh: 3.0
  UCH37 DUB inh: 1.4
  Ecoli growth: 0.69

Remaining list, next part:
Every second line gives: Vif A3G	HNF4A DNA FP	Bfl-1 A1 inh	Beta2AR agonist	LANA-H2B inh	UCH37 DUB inh	Ecoli growth
[21] CCn1c(/C=C\c2ccccc2C)nc2ccccc2c1=O
    2%	-3.0	-0.1	-6	-8.6	3.1	0.69
[22] Cc1ccc(-c2ccc(=O)n(Cc3ccc(F)cc3Cl)n2)cc1
    2%	1.8	0.1	19	5.6	-1.2	0.7
[23] COc1ccc(COC(=O)c2cc(S(=O)(=O)N3CCCCC3)ccc2N2CCOCC2)cc1
    -8%	1.7	-0.4	-1	-0.1	2.9	0.63
[24] Cc1ccc(-n2cc(CN3CCNC(=O)CC3)c(-c3ccc(F)cc3)n2)cc1
    ?	3.6	1.8	-10	4.7	3.1	0.66
[25] CC1CN(C(=S)Nc2ccccc2)N(c2ccccc2)C1 (stereo not given)
    .	0.8	-0.3	3	-3.2	2.6	0.68
[26] O=C(O)c1ccc(S(=O)(=O)c2ccc3c(c2)C(=O)N(NC(=O)c2cccnc2)C3=O)cc1
    -4%	1.8	-0.8	-3	-0.7	3.4	0.71
[27] Cc1nn(-c2ccccc2)c(C)c1NC(=O)COc1ccc(F)cc1Cl
    32%	1.2	0.1	-4	2.5	0.2	0.7
[28] CCCCSCCCNC(=O)c1ccc2c(c1)N(CC)C(=O)c1ccccc1S2=O (stereo not given)
    2%	-5.0	0.6	-5	4.5	4.9	0.66
[29] CC(C)CCN1CCN(Cc2ccoc2)CC1CCO (stereo not given)
    27%	2.9	-0.6	-6	-0.2	0.8	0.68
[30] CCN(CC(=O)NCc1ccc(Cl)cc1)C(=O)CSCC(=O)Nc1ccc(C)cc1
    .	2.1	-0.9	-3	2.0	1.3	0.7
[31] CC1(C(=O)OCC(=O)NC(=O)NCc2ccccc2)CC1(Cl)Cl (stereo not given)
    11%	3.9	-0.2	3	1.8	6.3	0.67
[32] O=C(CSC1=NNC(c2ccccn2)S1)Nc1ccc(C(F)(F)F)cc1 (stereo not given)
    6%	-1.4	-0.2	6	2.4	9.1	0.69
[33] O=C(CSc1ncccn1)NC(=O)NCc1ccco1
    5%	3.8	0.0	-12	2.3	1.7	0.62
[34] COc1ccccc1C(=O)Nc1nc2ccccc2s1
    .	1.7	-7.8	2	0.2	.	.
[35] CCN(C(=O)CN1C(=O)S/C(=C\c2ccc(Cl)cc2)C1=O)C1CCS(=O)(=O)C1 (stereo not given)
    .	1.1	-0.3	-7	12	7.0	0.64
[36] O=C(c1ccccc1)C1(c2ccccc2)OC1c1ccccc1 (stereo not given)
    2%	-2.5	.	5	.	0.8	0.7
[37] CCOC(=O)C1CCN(c2cc(C)nc3cc(-c4cccc(F)c4)nn23)CC1
    6%	0.5	0.1	-9	1.2	-295	0.73
[38] C/C(=N\OCC(=O)OCC(=O)NC(=O)c1ccccc1)c1ccc2c(c1)OCO2
    0%	-0.3	-0.3	-5	-5.0	.	.
[39] O=C(NNS(=O)(=O)c1ccccc1)c1cc2cc3ccccc3nc2s1
    5%	3.0	1.3	-12	2.6	1.6	0.69
[40] CCOc1ccccc1N(CC(=O)NCC1CCCO1)C(=O)CCC(=O)Nc1ccccn1 (stereo not given)
    7%	-4.0	.	-10	.	0.0	0.69
[41] Cc1cn(S(=O)(=O)c2cc(Br)ccc2Br)cn1
    -10%	3.6	0.0	-6	1.8	-1.2	0.7
[42] COC(=O)c1ccc(COc2ccc(-c3nnn(CC(N)=O)n3)cc2)cc1
    -1%	9.9	-0.1	9	-6.3	0.3	0.67
[43] O=C(Nc1ccc(NC(=O)c2ccc(Cl)cc2Cl)cc1)c1ccc2c(c1)OCO2
    -3%	0.9	-0.5	-6	2.5	-4.7	0.69
[44] N#CCC(=O)N/N=C1\CCCCC1C1CCCCC1 (stereo not given)
    23%	0.7	1.1	-2	-1.1	.	.
[45] CC(=O)N1c2ccc(S(=O)(=O)N3CCC(C(=O)Nc4cc(C)ccn4)CC3)cc2CC1C (stereo not given)
    .	14	1.8	-2	3.2	9.5	0.71
[46] CCOC(=O)c1[nH]cnc1N=Nc1c(O)ccc2ccccc12
    -6%	-13	-0.1	-4	-3.6	7.3	0.78
[47] CCc1cc(=O)oc2cc(C)cc(OCC(=O)NC(Cc3ccc(Cl)cc3)C(=O)O)c12 (stereo not given)
    .	2.1	0.0	-14	-0.5	-93	0.7
[48] CCOC(=O)c1oc2cc(C)cc(C)c2c1C
    13%	1.9	-0.5	3	-1.7	3.2	0.67
[49] CCCCNC(=O)CSc1nnc(-c2ccco2)n1C
    19%	1.0	0.2	5	5.9	2.8	0.65
[50] COc1ccc(OC)c(CNS(=O)(=O)c2cc(-c3cc(C)no3)ccc2OC)c1
    .	0.5	1.1	-7	4.4	4.6	0.7
[51] CCn1c(C)cc2c(c1=O)C(c1ccccc1)C(C(=O)OC)=C(N)O2 (stereo not given)
    -3%	2.6	0.7	-9	2.0	-17	0.71
[52] Cc1ccc(S(=O)(=O)N2CCOCC2)cc1C(=O)NCCN1C(=O)S/C(=C\c2ccccc2Cl)C1=O
    6%	0.7	-0.5	-2	-6.7	0.6	0.68
[53] CCC(=O)Nc1cccc(NC(=O)c2ccc(Br)cc2)c1
    .	-4.7	-1.1	-2	9.2	.	.
[54] CC(=O)c1ccc(OCC(=O)Nc2cccc(S(=O)(=O)N3CCCC3)c2)cc1
    -3%	-0.5	-1.5	-6	-1.4	3.8	0.7
[55] CC1=C(C(=O)Nc2ccccn2)C(c2ccc(F)cc2)n2ncnc2N1 (stereo not given)
    14%	-2.8	-0.3	-4	-0.1	0.1	0.69
[56] O=C(c1ccc(Cn2cc(Br)cn2)o1)N1N=C(C(F)F)CC1(O)C(F)F (stereo not given)
    4%	1.4	0.1	5	1.5	2.5	0.67
[57] O=C(N/N=C/c1ccc2c(c1)OCO2)c1cccc2ccccc12
    .	-1.6	0.6	-7	-11	.	.
[58] O=C(NCc1ccccc1Cl)C1CCN(C(=O)c2ccco2)CC1
    .	.	-1.1	.	-0.7	3.4	0.68
[59] O=C(Cn1c(=O)oc2ccccc21)Nc1ccccc1C(F)(F)F
    -4%	2.1	?	4	8.4	2.7	0.65
[60] Cc1ccc(Cl)cc1N1CCN(C(=O)C(=O)N2CCCCC2)CC1
    -5%	0.3	0.2	5	6.9	1.2	0.7
[61] CC1(C)SC(=S)N(NC(=O)Nc2ccccc2)C1N(O)C(=O)Nc1ccccc1 (stereo not given)
    23%	0.7	-0.3	5	-3.9	3.7	0.68
